Autofluor counter: flagged as autofluorescent in microsphere protease counterscreen | compound autofluorescence counterscreen, microsphere flow cytometry; hits give high values | fluorescence intensity (test concentration not listed) | hit rate 3.1% among 360,000 | AID 624483;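 active = at least 3 SD above the mean of all compounds, about 16000 in these data; inconclusive = too few beads counted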;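 also: 100 nL of 1 mM stock went into each well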
PrP UTR inh: inhibition of PrP 5' UTR reporter expression; cell-based PrP 5' UTR mRNA reporter, plate reader; inhibition, % (test concentration not listed); hit rate 0.35% among 340,000; AID 488862, 2010;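 active = every replicate at 50% or more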;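 also: 0 = median of the neutral control wells; tested in H4 reporter cells; numbers are from one replicate; inactives centre near -14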
RN4220 kill: growth inhibition of S. aureus RN4220, primary screen, OD600 | hit rate 0.33% among 330,000 | 16 h | inhibition, % (no concentration beside the values) | AID 1259311, 2017;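 active = z-score of -3 or lower and OD600 up to 0.18 on both plates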;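 also: plate controls were untreated cells for no effect and reference antibiotic for full effect; stock transfer was 100 nL into about 80 µL; one replicate is shown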
ugtP null kill: growth inhibition of ugtP-null S. aureus, primary screen, RN4220 ugtP deletion, OD600; growth inhibition, % (concentration not given with the values); hit rate 0.54% among 330,000; 16 h; some inactives read as strong as hits;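 active = z-score under -3 and OD600 up to 0.15 on both plates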;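 also: plate controls were untreated wells for no effect and antibiotic for full effect; wells of about 80 µL received 100 nL stock; the first replicate is given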
Mtb hypoxia inh: PubChem AID 1159583 | M. tuberculosis hypoxia-regulated fluorescent reporter, fluorescence | fluorescence inhibition, % (no concentration beside the values) | hit rate 0.1% among 300,000;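 active = 35 to 45% if threefold the growth effect, above 45% if 1.5-fold the growth effect; inactive = the rest, general growth blockers included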;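 also: wells of about 50 µL received 100 nL stock; 0% = vehicle wells and 100% = reference inhibitor wells; whole bacteria with a GFP reporter of the hypoxia response; strong numbers were not always called active; many hits fall short of the cut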
BJeLR viability: MLPCN primary cell-based screen for lethality selective to Ras in HRASV12 cells | BJeLR (HRASV12) viability, CellTiter-Glo ATP luminescence, 48 h; reference of the scale not given here | hit rate 0.17% among 300,000 | inhibition, % (test concentration not listed);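 active = replicate mean above 50%; inconclusive = above 50% but judged a plate artefact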;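 also: 50 nL library stock added to about 25 µL; numbers are from one replicate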
Mtb hypoxia inh growth: recorded beside Mtb hypoxia inh, whose call it bears; growth inhibition, %; measured here: M. tuberculosis growth (absorbance);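 0% = vehicle and 100% = reference antibiotic; read after six days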
* = called active by the depositor; ? = inconclusive; nt = not tested or not shown. Not a hit list. Share with any hit: about 4.1%.

SMILES	Autofluor counter	PrP UTR inh	RN4220 kill	ugtP null kill	Mtb hypoxia inh	Mtb hypoxia inh growth	BJeLR viability
COc1ccc(OCCSc2nnc(CC(=O)Nc3cccc(Cl)c3Cl)n2C)cc1	11680	-2.3	1.2	3.7	9.8	1.4	-6.7
CC(C)(C)CN1CCC(n2nccc2NC(=O)c2ccccc2Cl)CC1	4810	-8.3	2.0	5.0	6.1	7.4	2.7
COCCNC(C(=O)Nc1cc(Cl)cc(Cl)c1)c1ccccc1 (stereo not given)	3969	-0.6	1.1	1.4	11.5	10.1	-3.8
O=C(Cc1cccs1)NCc1cccc(C(F)(F)F)c1	4155	-30.0	-5.1	6.9	7.6	-1.1	-0.6
COc1ccc(CCNC(=O)C(NC(=O)OCc2ccccc2)C(C)C)cc1OC (stereo not given)	4557	-14.9	2.1	0.3	14.5	-3.5	7.3
COC(=O)c1ccc(COC(=O)CNC(=O)c2ccc(-c3ccccc3)cc2)cc1	3178	-39.5	-0.8	1.7	5.1	1.1	-9.4
CC1(c2ccccc2)NC(=O)N(CC(=O)Nc2cc3c(cc2Br)OCCO3)C1=O (stereo not given)	?	-15.3	2.9	7.0	8.7	2.9	-5.8
ON=C(CN1CCCCC1)c1ccccc1	nt	nt	3.8	21.2	11.8	10.9	nt
CC(C)(C)NC(=O)C(c1ccc(-c2ccccc2)cc1)N(C[C@H]1CC[C@@H]([C@@H]2CC[C@H](CO)O2)O1)C(=O)c1cccc(Cl)c1 (stereo not given in full)	3969	-6.9	27.4	-25.5	-9.0	11.2	nt
COc1ccc(S(=O)(=O)N2CCSC2C)cc1C (stereo not given)	3569	-7.0	4.5	6.6	-2.5	1.0	-3.5
CC1CCc2nc3ccc(S(=O)(=O)N4CCC(C(=O)NCc5ccccc5Cl)CC4)cc3c(C(=O)O)c2C1 (stereo not given)	nt	-24.7	-1.7	-7.9	-7.3	4.8	-2.1
Cc1ccc(CONC(=O)c2cccc(C)c2)cc1	6317	-43.7	4.3	2.1	2.6	-1.2	nt
NC(=NOCc1ccc([N+](=O)[O-])cc1)c1ccncc1	nt	nt	4.8	2.9	-3.5	-1.0	nt
O=C(O)C1CC=CCC1C(=O)NCc1ccccc1 (stereo not given)	22945*	5.8	3.6	3.2	6.3	7.0	-16.1
CCN(CC)CCOC(=O)c1ccc(N/C=C(/C#N)c2nc(-c3ccc(OC)c(OC)c3)cs2)cc1	4450	-24.1	-11.5	-21.2	nt	nt	-10.2
CCOC(=O)c1c(-c2ccccc2)csc1NC(=O)C(C)NCc1ccco1 (stereo not given)	2508	0.8	7.3	-1.6	5.4	-1.9	-2.9
CCOC(=O)c1ccc(N(C(=O)CNC(=O)c2ccco2)C(C(=O)NCC2CCCO2)c2ccc(OC)c(OC)c2)cc1 (stereo not given)	3840	-33.8	0.2	-1.3	3.8	-5.8	5.2
CCOC(=O)C1CCN(CCC(=O)Nc2ccc(F)cc2)CC1	4656	-12.6	1.0	-1.5	-5.6	-3.3	-6.0
CC(=O)N1CCN=C1SCc1ccc(C)cc1	4036	2.6	-3.4	3.5	nt	nt	5.1
O=C(O)CNS(=O)(=O)c1c(Cl)cccc1Cl	3899	-8.3	3.4	-3.4	5.0	4.0	-4.4
Cc1ccc(NC(=O)CCc2nnc(SCC(=O)Nc3ccccc3C)n2C)cc1Cl	9512	5.5	0.6	-1.4	6.3	9.7	-4.5
CC(=O)c1cc(F)c(N2CCN(C(=O)COc3ccc(F)cc3)CC2)cc1C	4083	-8.9	5.3	5.1	1.6	2.5	11.0
O=C(COc1cccc2cccnc12)Nc1nccs1	5960	-43.0	5.7	-20.0	0.5	6.2	-5.6
COc1cccc(-c2cc(C(=O)NN3CCOCC3)c3ccccc3n2)c1	2439	-60.5	5.3	-5.1	-1.7	4.2	2.6
Cc1ccc2c(c1)N(C(=O)CCC(=O)N1CCOCC1)CCO2	5291	-36.4	2.5	1.1	-6.7	-1.5	-7.4
O=C(COC(=O)Cc1ccc(Br)cc1)NCC1CCCCC1	3241	-11.8	0.5	3.5	-1.1	-4.9	-5.9
C=CCn1c(OCc2ccccc2)n[nH]c1=S	3056	-19.8	-0.2	15.1	6.5	2.3	-6.5
Cn1c(=O)[nH]c(=O)c2c1nc(N1CCCCC1)n2CC(O)CN1CCCCC1 (stereo not given)	4190	-73.8	-0.3	-0.8	-1.0	15.3	2.5
O=C(Nc1nccs1)C(Cl)(Cl)Cl	3420	-11.5	9.5	6.1	-7.3	-5.9	1.6
COc1ccc2nc(C3CCCCC3)nc(C3CCCCC3)c2c1	3881	3.6	-13.1	10.5	-2.2	7.1	0.7
COC(=O)c1ccc(S(=O)(=O)NCc2ccccc2)n1C	4342	-7.0	-2.3	-7.0	0.4	14.9	-5.3
CCC1(CC)NC(=O)N(CC(=O)OCC(=O)Nc2ncc(Cl)cc2Cl)C1=O	11643	-5.9	0.1	0.0	-6.5	2.4	3.3
Cc1ccc(C)n1NC(=O)c1ccccc1	?	-13.9	-1.6	-0.9	-8.5	-0.6	-6.4
COc1ccc(C)cc1NC(=O)C(c1ccccc1)N1CCN(CC(=O)N2CCOCC2)CC1 (stereo not given)	6011	1.5	2.7	3.9	3.5	11.8	nt
Cc1cc(C)c(C(=O)c2ccc(C(=O)N(C(C)C)C(C)C)cc2)c(C)c1	22394*	-12.0	-0.9	-8.4	7.3	4.5	-8.4
CCC(=O)N1CC2(C)CN(C(=O)CC)CC(C)(C1)C2	3829	-13.1	5.7	1.8	5.2	6.0	6.9
CC1CCCC(C)N1C(=O)COC(=O)CCC(=O)c1cccs1 (stereo not given)	4228	0.2	6.5	7.1	11.6	6.6	nt
CCN1C(=O)C2C(c3cccc(F)c3)NC(C)(C(=O)OC)C2C1=O (stereo not given)	7013	3.3	1.0	-0.2	4.6	4.4	6.4
CC(=O)NCC(=O)NC1CCCc2c1cnn2-c1ccc(C(C)(C)C)cc1 (stereo not given)	4518	-28.5	0.9	1.8	-5.6	7.5	-19.9
O=C(COC(=O)c1cccc(S(=O)(=O)N2CCOCC2)c1)c1ccccc1	6029	2.9	-2.2	-1.9	-11.6	4.6	5.1
O=c1c2ccccc2nc(/C=C/c2ccc3c(c2)OCO3)n1CCCO	5368	-10.9	7.0	-0.3	8.7	1.5	nt
CCOC(=O)C1CCN(C(=O)C2CCN(c3nnc(-n4cccc4)s3)CC2)CC1	3909	-17.9	5.4	2.9	22.2	26.2	1.3
CCNC(=O)N(CC)C[C@H]1N[C@@](Cc2ccccc2)(C(=O)OC)[C@H]2C(=O)N(C)C(=O)[C@@H]12	3420	-36.8	2.2	0.2	-2.3	4.7	nt
Cn1c(/C=N/NC(=O)c2ccccc2Br)nc2ccccc21	11092	14.0	nt	nt	nt	nt	-3.1
CC(C)c1ccc(C2N3CCCN23)cc1 (stereo not given)	2191	-15.7	3.5	5.8	12.5	6.6	-4.4
N=C1C(c2ccccc2)=C(O)CN1c1cccc(S(=O)(=O)N2CCCCC2)c1	3620	-12.8	7.1	12.1	9.1	9.9	9.1
O=C1C2C3C=CC(C4CC34)C2C(=O)N1/N=C/c1ccc([N+](=O)[O-])o1 (stereo not given)	3338	-17.1	nt	nt	nt	nt	-4.6
COc1ccc(CNC(=O)CN2C(=O)C3CCCN3c3ncc(Cl)cc32)cc1 (stereo not given)	21975*	-41.5	2.5	-7.8	-6.9	11.4	-4.5
Cc1ccc2nc(-c3ccc(NS(=O)(=O)c4c(C)n(C)c(=O)n(C)c4=O)cc3)sc2c1	3418	-69.7	nt	nt	nt	nt	-3.7
CCOc1ccc(NC(=S)NS(=O)(=O)c2cc(Br)ccc2OCC)cc1	nt	nt	5.5	11.0	11.8	-3.6	3.9
CCn1c(C)nnc1SCC(=O)Nc1ccc2c(c1)OCCO2	3421	-24.7	1.5	6.7	1.3	-2.3	-5.7
COc1cc(NC(=O)CN2CCC(C)CC2)c(C)cc1[N+](=O)[O-]	2465	-24.0	-2.9	0.3	-11.5	11.7	-10.6
CC1CN(CCCOc2ccc([N+](=O)[O-])cc2)CC(C)O1 (stereo not given)	2022	-16.9	5.4	6.6	0.3	4.5	-11.3
O=C(OCCN1CCOCC1)c1ccccc1	3645	-22.5	-0.5	3.9	8.1	-8.2	19.0
Cc1cc2ccccn2c1C(C[N+](=O)[O-])c1c(F)cccc1Cl (stereo not given)	5110	-13.2	nt	nt	nt	nt	-11.6
Cc1cc(O)cc(C)c1NS(=O)(=O)c1ccc2ccccc2c1	3078	1.8	8.9	12.3	16.4	-0.8	5.7
COc1ccc(Cl)cc1CN1CCN(c2nc(C)cc(C)c2C#N)CC1	2693	5.0	98.5*	99.6*	nt	nt	-12.9
CC(C)c1nnc(NC(=O)CCC(=O)Nc2ccccc2)s1	3628	-22.1	5.1	-2.5	3.0	-2.2	-10.0
O=Cc1ccc(OCc2ccccn2)cc1	9748	-78.3	4.2	0.6	0.8	4.1	-1.8
C#CC[N+]1(CC#Cc2cccc3ccccc23)CCOCC1	5277	-26.8	5.4	4.3	0.7	-5.4	-5.2

Later entries.
SMILES	Autofluor counter	PrP UTR inh	RN4220 kill	ugtP null kill	Mtb hypoxia inh	Mtb hypoxia inh growth	BJeLR viability
COc1ccc(Nc2nc3c([nH]2)c(=O)[nH]c(=O)n3C)cc1	2574	-14.9	4.6	-3.4	6.9	0.9	7.6
C=CCn1c(SCC(=O)Nc2ccc(F)cc2)nc2ccccc2c1=O	4048	-11.5	5.1	11.6	-5.7	15.4	-3.0
CC(C)(CNC(=O)Cc1ccc(Cl)cc1Cl)N1CCCCC1	3974	-17.6	2.2	8.3	2.2	-4.3	3.3
CC(=O)c1cc(C#N)c(N2CC(C)OC(C)C2)nc1C (stereo not given)	4060	-17.5	3.7	-1.4	6.5	1.0	8.0
Cc1ccc(NC(=O)C2CCN(C(=O)c3cccs3)CC2)cc1	3149	-21.4	-1.6	0.0	10.2	-7.3	-1.0
Cc1nc(SCC(N)=O)c(C#N)c(C)c1C	4028	-10.9	1.9	4.0	4.3	-5.5	-1.8
S=C(NCCN1CCOCC1)Nc1ccc(Nc2ccccc2)cc1	3386	-9.8	0.3	-9.4	-7.6	12.8	-0.5
O=c1c2c(-c3ccccc3)csc2ncn1/N=C/c1c2ccccc2cc2ccccc12	11581	-10.7	nt	nt	nt	nt	-1.6
Cc1cccc(NC(=O)CSC(N)=O)c1C	3013	-15.6	-21.7	8.7	25.3	-23.9	-2.8
CC(c1ccccc1)N1C(=O)/C(=C/c2ccncc2)SC1=S (stereo not given)	3210	-3.1	-4.1	-17.3	0.5	3.1	23.4
CC(C)CCNC(=O)CN1C(=O)NC(c2ccccc2)(c2ccccc2)C1=O	3628	-20.0	-0.7	-0.9	2.9	1.1	-9.6
CCCc1c(O)nc(SCc2ccccc2)[nH]c1=O	9761	-28.7	14.6	-1.6	9.9	11.8	-4.5
COc1ccc(CCNC(=S)NC(=O)c2cccc(Cl)c2)cc1OC	3811	nt	5.3	71.9	2.6	-5.0	4.1
CCCCn1c(O)c(C(CC)=NCc2ccc3c(c2)OCO3)c(=O)[nH]c1=O	3831	-22.6	2.2	10.0	11.6	8.0	-10.4
Cc1ccc(-c2nn3c(C)nnc3c3ccccc23)cc1S(=O)(=O)NCc1ccco1	10540	-27.4	12.1	-1.3	7.9	2.2	-4.4
CN(c1ccc(C(=O)NCc2ccccc2)cc1)S(C)(=O)=O	9158	-13.9	-0.6	-0.9	0.3	-4.3	-1.4

Part of the list above in a different format:
| structure | Autofluor counter | PrP UTR inh | RN4220 kill | ugtP null kill | Mtb hypoxia inh | Mtb hypoxia inh growth | BJeLR viability |
| --- | --- | --- | --- | --- | --- | --- | --- |
| CCCc1c(O)nc(SCc2ccccc2)[nH]c1=O | 9761 | -28.7 | 14.6 | -1.6 | 9.9 | 11.8 | -4.5 |
| COc1ccc(Nc2nc3c([nH]2)c(=O)[nH]c(=O)n3C)cc1 | 2574 | -14.9 | 4.6 | -3.4 | 6.9 | 0.9 | 7.6 |
| Cc1cccc(NC(=O)CSC(N)=O)c1C | 3013 | -15.6 | -21.7 | 8.7 | 25.3 | -23.9 | -2.8 |
| CC(C)(CNC(=O)Cc1ccc(Cl)cc1Cl)N1CCCCC1 | 3974 | -17.6 | 2.2 | 8.3 | 2.2 | -4.3 | 3.3 |
| CCCCn1c(O)c(C(CC)=NCc2ccc3c(c2)OCO3)c(=O)[nH]c1=O | 3831 | -22.6 | 2.2 | 10.0 | 11.6 | 8.0 | -10.4 |

Bioassay records as filed in PubChem BioAssay.
